Screening results from PubChem.
Measles inh – inhibitors of measles virus growth in infected cells | AID 745 | infected Vero cells, GFP fluorescence, 64 h; hits give low values | hit rate 0.1% among 33,000 | z-score (concentration not given with the values);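 active = z-score under -3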;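 also: score is relative to mean and SD of the compound wells of a plate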
* marks the source's active call; other numbers are inactive results. Not all compounds are listed (hit frequency here may not be typical).

SMILES | Measles inh
CCN(c1cccc(C)c1)C(C(=O)Nc1ccc2c(c1)OCCO2)c1ccccc1 (configuration not stated) | 0.3
O=C1C(=O)N(Cc2cccnc2)C(c2cccc(Oc3ccccc3)c2)/C1=C(\O)c1ccc(F)cc1 (configuration not stated) | -1.4
COC(=O)CNS(=O)(=O)Nc1ccc(-c2nc3ccc(C)cc3s2)cc1 | -0.58
Cc1ccc(-c2cc(C(=O)OCC(=O)c3ccc(C)c([N+](=O)[O-])c3)c3ccccc3n2)cc1 | 0.34
Oc1c(F)cccc1C=Nc1ccc2oc(-c3ccccc3)nc2c1 | -0.79
COc1cccc(CNC(=O)c2cc(Sc3ccc(C)cc3)nc3ccccc23)c1 | -0.54
Cc1oc(C(=O)O)cc1COc1ccc2c3c(c(=O)oc2c1)CCC3 | 1.6
OCCn1c(-c2ccc(Cl)cc2)csc1=Nc1ccccc1 | 1.2
CCc1ccc(Nc2nc3ccccc3nc2NS(=O)(=O)c2ccc(C)cc2)cc1 | -0.65
CCN(c1cccc(C)c1)S(=O)(=O)c1ccc2c3c(cccc13)C(=O)N2 | -1
O=C(Nc1ccccc1O)c1scc2c1CCCC2 | 1.9
CCSc1nnc(NC(=O)CSc2nc3c(c(=O)n2-c2ccccc2OC)SCC3)s1 | -0.59

Exported in markdown: 2 of the compounds above
| SMILES | Measles inh |
| --- | --- |
| COc1cccc(CNC(=O)c2cc(Sc3ccc(C)cc3)nc3ccccc23)c1 | -0.54 |
| CCSc1nnc(NC(=O)CSc2nc3c(c(=O)n2-c2ccccc2OC)SCC3)s1 | -0.59 |

The list goes on:
SMILES | Measles inh
CCC(=O)N1CCc2cc(Br)cc(S(=O)(=O)N3CCCC(C(=O)Nc4cc(C)ccc4OC)C3)c21 (configuration not stated) | -0.53
COc1ccc(N2C(=O)C(Cl)=C(Nc3c(C)n(C)n(-c4ccccc4)c3=O)C2=O)cc1 | -0.72
COc1c2occc2c(OC)c2c(=O)cc(C(F)(F)C(F)F)oc12 | -0.99
CC(C)CSc1nc2sc3c(c2c(=O)n1-c1ccccc1)CC(C)(C)OC3 | -0.06
CCOc1ccc2nc(C(=O)Nc3ccc(C)cc3)sc2c1 | 0.57
O=C(NCCCN1CCCC1)C1CCC(Cn2c(=O)[nH]c3ccccc3c2=O)CC1 (configuration not stated) | -0.86
CCOc1ccc(N=C2SC(C(=O)Nc3ccccc3OC)CC(=O)N2Cc2ccc(Cl)cc2)cc1 (configuration not stated) | 0.41
CC(=O)Nc1sc2c(c1SC#N)CCCC2 | -2
COc1ccc(-c2nc3cc(NC(=O)COc4cccc(C)c4)ccc3o2)cc1 | 1.2
COc1ccccc1-c1cc(NC(=O)Nc2ccc(Cl)cc2)n[nH]1 | -0.17
CC1CC(C)CN(C(=O)c2c[nH]c3ccc(S(=O)(=O)N4CCOCC4)cc3c2=O)C1 (configuration not stated) | 0.66
CC1CCN(S(=O)(=O)c2ccc3[nH]c(=O)cc(C(=O)NC4CCCCC4C)c3c2)CC1 (configuration not stated) | -0.33
O=C(Nc1ccc(-c2noc(-c3ccc(Cl)cc3)n2)cc1)c1ccc(Br)o1 | 0.81
O=C(NCC1CCCO1)C1CCN(S(=O)(=O)c2ccc(F)cc2)CC1 (configuration not stated) | 1
Cc1ccc(C(=O)Nc2c3c(nn2-c2cccc(C)c2C)CS(=O)(=O)C3)cc1 | -1
COc1cc(C=Nc2ccc(S(=O)(=O)Nc3ccccn3)cc2)cc(OC)c1OC | 0.42
Cc1sc2c(c1C)c(=O)n(-c1ccc3c(c1)OCO3)c(=O)n2Cc1ccccc1F | -0.13
Cn1c(-c2cc3ccc(O)c(CN4CCCC4)c3oc2=O)nc2ccccc21 | -0.08
COc1cc(C2C(C(N)=O)=C(C)Nc3nc(SCc4ccccc4F)nn32)cc(OC)c1OC (configuration not stated) | 2
Cc1ccnc(SC2CC(=O)N(c3ccc(-c4ccccc4)cc3)C2=O)n1 (configuration not stated) | 0.32
Cc1onc(-c2ccccc2Cl)c1C(=O)Nc1cccc(Cl)c1NC(=O)c1ccccc1 | -1.4
CCOc1cc(C2C(C(=O)OC)=C(C)NC3=C2C(=O)c2ccccc23)ccc1OCC#N (configuration not stated) | -1.1
O=C(CSc1nnnn1-c1ccc(C(=O)O)cc1)Nc1cccc2ccccc12 | 0.36
COc1ccccc1NC(=O)Cn1cnc2sc(C(=O)N3CCCCCC3)c(C)c2c1=O | 1.1
CC(C)CCN1C(=O)CCC1(C)C(=O)NC1CCCCC1 (configuration not stated) | 1.5
Nc1c(C(=O)Nc2ccc(Br)cn2)sc2nc3c(cc12)CC(c1ccccc1)CC3 (configuration not stated) | 0.26
Cc1cccc(-c2nnc(NC(=O)C(F)(F)F)s2)c1 | 1.4
O=C(NC1CCCCC1)c1ccc([N+](=O)[O-])cc1 | -0.29
Cc1ccc(C(=O)Nc2cccnc2)cc1 | -0.1
COc1ccccc1-n1c(=S)[nH]c2c(sc(=S)n2-c2ccccc2)c1=O | -0.47
COc1ccc2c(c1)-c1c(sn(-c3ccc(OC)c(OC)c3)c1=S)C(C)(C)N2 | 0
CCOC(=O)C1CCCN(C(=O)c2c[nH]c3ccc(S(=O)(=O)Nc4cccc(C(F)(F)F)c4)cc3c2=O)C1 (configuration not stated) | -0.15
COc1ccc(N2C(=O)c3ccccc3NC2c2ccccc2F)cc1 (configuration not stated) | -0.87
O=c1[nH]c(C=Cc2ccc(Br)cc2)nc(O)c1[N+](=O)[O-] | -0.08
O=C(Nc1cccc(Cl)c1)c1cccc(C(=O)Nc2cccc(Cl)c2)n1 | -0.58
CCOc1cc(-c2nc(-c3cccc(C)c3)no2)cc(OCC)c1OCC | -1.1
COc1ccc(CN2CCC(N3CC(C)OC(C)C3)CC2)cc1OCc1ccccc1 (configuration not stated) | 2.2
COc1ccccc1C1Oc2ccccc2C2CC(c3ccc(Cl)cc3)=NN21 (configuration not stated) | -0.13
CCOC(=O)C(C)Sc1nnc(-c2c[nH]c3ccccc23)n1C (configuration not stated) | -1.8
CC(=O)N1CCc2cc(S(=O)(=O)CCC(=O)N(C)c3cccc(C)c3)ccc21 | 0.24
CCOc1cc2[nH]c(=S)n(CCCN3CCCC3)c(=O)c2cc1OCC | 0.95
CCOc1ccc(C(=O)N(C(=O)c2ccc(OCC)cc2)c2ncccc2C)cc1 | -1.6
COc1ccc(OC)c(C2CC(c3ccc(Br)cc3)=NN2C(C)=O)c1 (configuration not stated) | 1.1
COc1ccc(S(=O)(=O)NCCC23CC4CC(CC(C4)C2)C3)c2ccccc12 | 0.28
Cc1c(NS(=O)(=O)c2ccccc2[N+](=O)[O-])c(=O)n(-c2ccccc2)n1C | -0.27
COc1ccc(C2CC(=O)C3=C(C2)Nc2ccccc2NC3c2ccccc2C)cc1 (configuration not stated) | 0.11
CSCCOC(=O)C1=C(C)NC(=O)NC1c1ccc(C)c([N+](=O)[O-])c1 (configuration not stated) | -0.52
Cc1cccc(-n2nc3c(c2NC(=O)c2ccc(C(C)(C)C)cc2)CSC3)c1C | 0.48
COc1cc(-c2ccc(C=Cc3[nH]c(=O)[nH]c(=O)c3Cl)o2)c(OC)cc1Cl | 0.01
CCOC(=O)C1=C(C)Nc2ncnn2C1c1cc(OC)ccc1OC (configuration not stated) | 0.04
CCSc1nnc(NC(=O)CCN2C(=O)C3C4C=CC(C4)C3C2=O)s1 (configuration not stated) | -0.6
Fc1ccc(N2CN(Cc3ccccc3)CNC2=S)cc1 | -0.59
Cc1nn(C(=O)COc2ccccc2[N+](=O)[O-])c(C)c1Sc1ccc([N+](=O)[O-])cc1 | -1.6
CCOc1cc2[nH]c(=S)n(C3CCCCC3)c(=O)c2cc1OCC | 1.7
CCOC(=O)c1cnc2ccc(C)cc2c1Nc1ccc(C)cc1 | -1.3
CCc1nc(SCC(=O)Nc2cc(C)on2)n[nH]1 | -0.69
Cc1c(C(=O)NCc2ccco2)cccc1[N+](=O)[O-] | -0.25
CCC(=O)N1c2ccccc2NC2=C(C(=O)CC(C)(C)C2)C1c1cccc(F)c1 (configuration not stated) | -0.69
O=c1c2sc(-c3ccc([N+](=O)[O-])cc3)cc2nc2n1CCCCC2 | -0.47
Cc1ccc(C)c(CSC2=NCCN2C(=O)c2ccc(S(=O)(=O)N3CCOCC3)cc2)c1 | 0.45

Brought forward from above: 3 entries; new compounds follow.
SMILES | Measles inh
CCC(=O)N1c2ccccc2NC2=C(C(=O)CC(C)(C)C2)C1c1cccc(F)c1 (configuration not stated) | -0.69
O=c1c2sc(-c3ccc([N+](=O)[O-])cc3)cc2nc2n1CCCCC2 | -0.47
Cc1ccc(C)c(CSC2=NCCN2C(=O)c2ccc(S(=O)(=O)N3CCOCC3)cc2)c1 | 0.45
Cc1cc(C)n2nc(S(=O)(=O)N3CCC(C(=O)O)CC3)nc2n1 | 0.53
Nc1c(C(=O)c2cc3ccccc3o2)oc2ccc(Br)cc12 | -0.71
COc1ccc(C2CC(=O)Nc3cc4c(cc32)OCCO4)cc1OC (configuration not stated) | 1.6
COc1ccc(C2C(=O)N(C3CCCCC3)CC(=O)N2Cc2ccco2)cc1OC (configuration not stated) | 0.59
COc1cccc(C2Oc3ccc(Cl)cc3C3CC(c4ccco4)=NN32)c1 (configuration not stated) | 1.5
COCc1cc(C)nc(SCC(=O)NCc2ccco2)c1C#N | -0.37
CC(C)COC(=O)c1ccc2c(c1)C1C=CCC1C(c1ccc(Cl)cc1)N2 (configuration not stated) | -0.11
O=C(NC1CC1)c1cc(=O)[nH]c2ccc(Br)cc12 | 0.73
COc1ccc(-c2nnc(NC(=O)c3ccc(S(=O)(=O)N4CC(C)CC(C)C4)cc3)o2)cc1 (configuration not stated) | 1.8
Cc1ccc(C2/C(=C(\O)c3ccccc3)C(=O)C(=O)N2c2ccc(F)cc2)cc1 (configuration not stated) | -0.49
C=CCn1c(SCC(=O)Nc2ccc(OC)c(Cl)c2)nnc1-c1cccnc1 | 0.12
CCOc1ccccc1NC(=O)C1=C(C)NC(=O)NC1c1ccccc1F (configuration not stated) | 0.05
COC(=O)c1nc2n(n1)C(c1ccc(C)cc1)C1=C(N2)c2ccccc2OC1c1ccc(C)cc1 (configuration not stated) | -0.21
Cc1ccc(-c2cc(C(=O)NCCCN3CCOCC3)c3ccccc3n2)c(C)c1 | 0.61
O=C(Nc1ccc(Cl)cc1)C1(S(=O)(=O)c2ccc(Cl)cc2)CC1 | -0.75
Cc1cccc(N2CCN(C(=O)c3ccc(S(=O)(=O)c4ccccc4Cl)c([N+](=O)[O-])c3)CC2)c1C | 0.94
CC1=C(C(=O)Nc2ccc(Br)cn2)C(c2ccc(Cl)cc2)C2=C(CC(C)(C)CC2=O)N1 (configuration not stated) | 0.28
Cc1n[nH]c(C)c1S(=O)(=O)NCCc1ccc(Cl)cc1 | 0.4
CC1=C(C(=O)OCC2CCCO2)C(c2cccs2)C2=C(CC(c3cccs3)CC2=O)N1 (configuration not stated) | -0.97
CCOC(=O)c1c(NC(=O)C(C(F)(F)F)C(F)(F)F)sc(C(=O)N2CCCCC2)c1C | -0.61
CC(C)CCN(C)C1CCN(S(=O)(=O)c2ccc(C3CCCCC3)cc2)CC1 | -1.3
COC(=O)Cc1c(C)c2cc(Cl)c(O)cc2oc1=O | -0.31
Cc1ccc(NC(=O)C(c2ccccc2)c2ccccc2)cc1[N+](=O)[O-] | -0.25
CN(CCc1ccccn1)Cc1c[nH]c2ccccc12 | -1.1
Clc1ccc(C(=C2CN3CCC2CC3)c2ccc(Cl)s2)s1 | -0.17
COC(=O)c1ccc(OC(=O)c2ccncc2)cc1OC(=O)c1ccncc1 | -0.07
O=C(CN1CCN(CC(=O)Nc2ccccc2F)CC1)Nc1ccc(Cl)c(C(F)(F)F)c1 | 0.69
CC(=O)Nc1ccc2c(c1)C(=O)N(c1cccc(F)c1)C2=O | 0.52
O=C(CCn1c(=O)c2sccc2n(Cc2cc(=O)n3ccccc3n2)c1=O)NCc1ccc2c(c1)OCO2 | -0.67
COc1ccccc1NC(=O)c1cc2ccccc2o1 | 0.56
CC(C)OC(=O)c1cccc(NC(=O)CSc2nnc(N)s2)c1 | 0.61
CC1CCN(S(=O)(=O)c2ccc3nc(-c4ccccn4)cc(C(=O)NCCCN4CCCCC4C)c3c2)CC1 (configuration not stated) | -0.62
COCCN1C(=O)c2ccccc2C(C(=O)Nc2cc(Cl)c(OC)cc2OC)C1c1c[nH]c2ccccc12 (configuration not stated) | -1.3
O=C(c1nn2c(C(F)(F)F)c3c(nc2c1Cl)-c1ccccc1CC3)N1CCOCC1 | -0.13
CCc1ccc(CNC(=O)Cc2cn(C)c3ccccc23)cc1 | 1.1
CCOc1ccc(NC(=O)C2c3ccccc3C(=O)N3CCc4cc(OCC)c(OCC)cc4C23)cc1 (configuration not stated) | -1.3
CC(C)CCNC(=O)C1C2C=CC3(CN(Cc4ccccc4Cl)C(=O)C13)O2 (configuration not stated) | 0
CC(=O)CC1(O)C(=O)N(C)c2ccccc21 (configuration not stated) | 0.83
O=C(NCCc1ccccc1)c1ccc2c(=O)n(CCC3=CCCCC3)c(=S)[nH]c2c1 | -1

Arranged by value in Measles inh (rising): seven from the list above
SMILES | Measles inh
O=C(NCCc1ccccc1)c1ccc2c(=O)n(CCC3=CCCCC3)c(=S)[nH]c2c1 | -1
Clc1ccc(C(=C2CN3CCC2CC3)c2ccc(Cl)s2)s1 | -0.17
COC(=O)c1ccc(OC(=O)c2ccncc2)cc1OC(=O)c1ccncc1 | -0.07
CC(=O)Nc1ccc2c(c1)C(=O)N(c1cccc(F)c1)C2=O | 0.52
COc1ccccc1NC(=O)c1cc2ccccc2o1 | 0.56
CC(C)OC(=O)c1cccc(NC(=O)CSc2nnc(N)s2)c1 | 0.61
CC(=O)CC1(O)C(=O)N(C)c2ccccc21 (configuration not stated) | 0.83
